# Bioassay records as filed in PubChem.
# UUG fidelity: yeast start codon fidelity modulation. 0.13% of 350,000 active. S. cerevisiae UUG-firefly luciferase reporter, luminescence/redox ratio. AID 602363. activity score, % at 18.7 µM;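 active means replicate mean at a twofold rise or more, about +100% in these data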;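 further: firefly luciferase made from a UUG start codon reports start codon fidelity; reporter light over untreated wells divided by growth signal over untreated wells; some hits fall short of that in this replicate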
# HIV Env fusion: HIV envelope-mediated fusion inhibition. HeLa-JRFL Env/CEM21 cell fusion, luciferase. inhibition, % at 12.3 µM. 1.1% of 360,000 active. AID 651610;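 active means mean replicate inhibition score of at least 50 and every replicate individually at or above 50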;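 further: 0% = plate neutral controls and 100% = maraviroc near 300 nM; one replicate is shown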
# The depositor's hits bear a star; & = joins results of further samples; [ ] = remark or other dose.
SMILES,UUG fidelity,HIV Env fusion
COC(=O)C[C@@H]1CC[C@H]2[C@@H](COc3ccc(NC(=O)Nc4ccc(Cl)cc4)cc3C(=O)N2C)O1,10,11[16.7 µM]
COc1ccc(CN(C)C[C@H]2OCCCC[C@@H](C)Oc3ccc(NC(=O)c4ccccc4)cc3C(=O)N([C@H](C)CO)C[C@H]2C)cc1,20,28[16.7 µM]
CC(C)c1cn(CC[C@@H]2CC[C@@H](NS(=O)(=O)c3ccc(Cl)cc3)[C@@H](CO)O2)nn1,0,7[16.7 µM]
CC(C)NC(=O)Nc1ccc2c(c1)C(=O)N([C@@H](C)CO)C[C@H](C)[C@H](CN(C)C(=O)Nc1ccccc1)O2,-7,0[16.7 µM]
C[C@H](CO)N1C[C@H](C)[C@H](CN(C)C(=O)c2ccc(F)cc2)Oc2ncc(C3=CCCC3)cc2C1=O,-3,-1[16.7 µM]
CCC(=O)N1C[C@@H](C)[C@H](OC)CN(C)C(=O)c2cc(NC(=O)C3CC3)ccc2OC[C@@H]1C,0,5[16.7 µM]
Cc1noc(C)c1NC(=O)Nc1ccc2c(c1)C(=O)N([C@@H](C)CO)C[C@@H](C)[C@H](CN(C)S(=O)(=O)c1cccs1)OCCCC[C@@H](C)O2,4,-31[16.7 µM]
C[C@H]1CN([C@@H](C)CO)C(=O)Cc2cc(NS(=O)(=O)c3ccc(Cl)cc3)ccc2O[C@H]1CN(C)C(=O)Nc1ccc(C(F)(F)F)cc1,-9,3[16.7 µM]
COCC#Cc1cnc2c(c1)C(=O)N([C@H](C)CO)C[C@@H](C)[C@@H](CN(C)C(=O)c1ccc(F)cc1)O2,0,-2[16.7 µM]
CCCNC(=O)N1[C@@H](C#N)[C@H](c2ccc(-c3cccnc3)cc2)[C@@H]1CO,41,13[16.7 µM]
O=C(CCN1CCCCC1)N[C@H]1CC[C@H](CCNC(=O)c2cc(Cl)cc(Cl)c2)O[C@@H]1CO,4,-3[16.7 µM]
O=C(NCC[C@@H]1CC[C@H](NS(=O)(=O)c2ccccc2F)[C@@H](CO)O1)c1ccc(F)cc1,-1,-6[16.7 µM]

# 3 entries already listed, ordered by SMILES length, falling:
SMILES,UUG fidelity,HIV Env fusion
COC(=O)C[C@@H]1CC[C@H]2[C@@H](COc3ccc(NC(=O)Nc4ccc(Cl)cc4)cc3C(=O)N2C)O1,10,11[16.7 µM]
CC(C)c1cn(CC[C@@H]2CC[C@@H](NS(=O)(=O)c3ccc(Cl)cc3)[C@@H](CO)O2)nn1,0,7[16.7 µM]
CCCNC(=O)N1[C@@H](C#N)[C@H](c2ccc(-c3cccnc3)cc2)[C@@H]1CO,41,13[16.7 µM]

# The listing picks up, repeating the 2 entries before the break.
SMILES,UUG fidelity,HIV Env fusion
O=C(CCN1CCCCC1)N[C@H]1CC[C@H](CCNC(=O)c2cc(Cl)cc(Cl)c2)O[C@@H]1CO,4,-3[16.7 µM]
O=C(NCC[C@@H]1CC[C@H](NS(=O)(=O)c2ccccc2F)[C@@H](CO)O1)c1ccc(F)cc1,-1,-6[16.7 µM]
C[C@H](CO)N1C[C@H](C)[C@@H](CN(C)C(=O)Nc2cccc3ccccc23)OCCCC[C@H](C)Oc2ccc(NS(=O)(=O)c3cccs3)cc2C1=O,-11,24[16.7 µM]
C[C@@H]1CN([C@H](C)CO)C(=O)c2cc(/C=C/c3ccccc3)cnc2O[C@@H]1CN(C)Cc1cncnc1,-16,-30[16.7 µM]
C[C@@H]1CCCCO[C@H](CN(C)C(=O)CCC(F)(F)F)[C@H](C)CN([C@H](C)CO)C(=O)c2cc(NS(=O)(=O)c3ccccc3)ccc2O1,-3&6,6&23[16.7 µM]
COc1ccc(NC(=O)N(C)C[C@H]2Oc3ccc(NC(=O)Cc4cn(C)c5ccccc45)cc3C(=O)N([C@H](C)CO)C[C@@H]2C)cc1,6,21[16.7 µM]
Cc1noc(C)c1NC(=O)N(C)C[C@@H]1Oc2ccc(N(C)C)cc2CC(=O)N([C@H](C)CO)C[C@@H]1C,0,12[16.7 µM]
O=C(N[C@@H]1CC[C@@H](CCNC(=O)c2ccccc2F)O[C@@H]1CO)c1cnccn1,-1,-1[16.7 µM]
COc1ccc(NC(=O)Nc2ccc3c(c2)C(=O)N([C@H](C)CO)C[C@@H](C)[C@@H](CN(C)C(=O)NC2CCCCC2)O3)cc1,2,-8[16.7 µM]
C[C@@H]1CCCCO[C@@H](CN(C)Cc2ccc(C(=O)O)cc2)[C@@H](C)CN([C@@H](C)CO)C(=O)c2cc(NC(=O)c3ccccc3)ccc2O1,3,-11[16.7 µM]
CC(=O)N(C)C[C@@H]1Oc2cc(-c3cccnc3)ccc2S(=O)(=O)N([C@@H](C)CO)C[C@@H]1C,3,30[16.7 µM]
O=C(N[C@H]1CC[C@@H](CCNC(=O)C2CCOCC2)O[C@H]1CO)c1ccccn1,-24,14[16.7 µM]
C[C@H](NC(=O)C[C@H]1C=C[C@H](NC(=O)CN2CCOCC2)[C@H](CO)O1)c1ccccc1,-10,-3[16.7 µM]
C[C@@H]1CN([C@H](C)CO)S(=O)(=O)c2ccc(-c3cccnc3)cc2O[C@H]1CN(C)C(=O)C1CCC1,-8,5[16.7 µM]
C[C@@H]1CN([C@@H](C)CO)C(=O)c2cc(NC(=O)c3ccccc3)ccc2O[C@@H](C)CCCCO[C@@H]1CN(C)C(=O)Nc1ccc(C(F)(F)F)cc1,-7,21[16.7 µM]
CCCNC(=O)Nc1ccc2c(c1)OC[C@H](C)N(CCC)C[C@@H](C)[C@@H](OC)CN(C)C2=O,-11,-4[16.7 µM]
C[C@@H]1CN([C@@H](C)CO)C(=O)CCCn2nncc2CO[C@H]1CN(C)CC1CC1,13,9
CC(C)CC#Cc1ccc2c(c1)O[C@@H](CN(C)C(=O)NC1CCCC1)[C@H](C)CN([C@H](C)CO)S2(=O)=O,8,21[16.7 µM]
C[C@H](CO)N1C[C@H](C)[C@@H](CN(C)Cc2ccncc2)OCCCC[C@H](C)Oc2ccc(NS(=O)(=O)c3cccs3)cc2C1=O,-8,-1[16.7 µM]
CCC(=O)Nc1ccc2c(c1)OC[C@H](C)N(C(=O)c1ccccn1)C[C@@H](C)[C@@H](OC)CN(C)C2=O,0,-8[16.7 µM]
COc1ccc(C#Cc2cnc3c(c2)C(=O)N([C@@H](C)CO)C[C@H](C)[C@@H](CN(C)C)O3)cc1,2,4[16.7 µM]
C[C@@H]1CN([C@@H](C)CO)S(=O)(=O)c2ccc(-c3cccnc3)cc2O[C@@H]1CN(C)C(=O)NC1CCCCC1,8,10[16.7 µM]
CN(C)CCCNC(=O)C[C@H]1C=C[C@H](NC(=O)Cc2cccnc2)[C@@H](CO)O1,-1,-14[16.7 µM]
COc1cccc(-c2ccc3c(c2)O[C@@H](CN(C)C(=O)C2CC2)[C@@H](C)CN([C@@H](C)CO)S3(=O)=O)c1,-1,-13[16.7 µM]
C[C@@H]1CN([C@@H](C)CO)C(=O)c2cccc(NC(=O)C3CC3)c2O[C@@H]1CN(C)C(=O)Nc1ccc(C(F)(F)F)cc1,14,-14[16.7 µM]
CCCC#Cc1ccc2c(c1)O[C@H](CN(C)Cc1cccnc1)[C@H](C)CN([C@@H](C)CO)S2(=O)=O,-11,-17[16.7 µM]

# One compound at a time (already shown).
# Entry for `C[C@@H]1CN([C@@H](C)CO)C(=O)c2cccc(NC(=O)C3CC3)c2O[C@@H]1CN(C)C(=O)Nc1ccc(C(F)(F)F)cc1` → UUG fidelity: 14; HIV Env fusion: -14[16.7 µM]
# Entry for `CC(C)CC#Cc1ccc2c(c1)O[C@@H](CN(C)C(=O)NC1CCCC1)[C@H](C)CN([C@H](C)CO)S2(=O)=O` → UUG fidelity: 8; HIV Env fusion: 21[16.7 µM]

# The listing continues.
SMILES,UUG fidelity,HIV Env fusion
COCC(=O)Nc1ccc2c(c1)C(=O)N(C)C[C@H](OC)[C@@H](C)CN(C(=O)c1ccccc1F)[C@@H](C)CO2,-5,18[16.7 µM]
C[C@@H]1CN([C@@H](C)CO)C(=O)c2cc(C#CCN(C)C)cnc2O[C@H]1CN(C)S(=O)(=O)c1ccccc1,6,-12[16.7 µM]
C[C@@H]1CN([C@@H](C)CO)C(=O)c2cc(C3=CCCC3)cnc2O[C@@H]1CN(C)Cc1ccc(F)cc1,26,1[16.7 µM]
O=C(C[C@H]1C=C[C@H](NC(=O)NC2CCCC2)[C@H](CO)O1)NCc1ccc(F)cc1,-11,6[16.7 µM]
COc1ccc(NC(=O)Nc2ccc3c(c2)C(=O)N([C@H](C)CO)C[C@H](C)[C@H](CN(C)C(=O)Nc2ccccc2)OCCCC[C@H](C)O3)cc1,-5,-19[16.7 µM]
C[C@H]1CCCCO[C@@H](CN(C)C(=O)Cc2ccccc2)[C@@H](C)CN([C@@H](C)CO)C(=O)c2cc(NS(=O)(=O)c3ccccc3)ccc2O1,-7,17[16.7 µM]
C[C@H](CO)N1C[C@H](C)[C@@H](CN(C)Cc2ccc(C(F)(F)F)cc2)OCCCC[C@H](C)Oc2ccc(NC(=O)Nc3ccccc3)cc2C1=O,7,3[16.7 µM]
C/C=C/c1ccc2c(c1)O[C@H](CN(C)C(=O)CN(C)C)[C@@H](C)CN([C@H](C)CO)S2(=O)=O,-3,-2[16.7 µM]
CCc1csc(N2[C@@H](C#N)[C@H](c3ccc(C#Cc4ccc(F)cc4)cc3)[C@@H]2CO)n1,-11,49[16.7 µM]
COc1ccc(NC(=O)Nc2ccc3c(c2)C(=O)N([C@@H](C)CO)C[C@@H](C)[C@H](CN(C)C(=O)CCCN(C)C)OCCCC[C@@H](C)O3)cc1,12,16[16.7 µM]
C[C@H](CO)N1C[C@H](C)[C@H](CN(C)Cc2cccc(F)c2)Oc2cc(C#CC3CC3)ccc2S1(=O)=O,1,10[16.7 µM]
COCC#Cc1ccc2c(c1)O[C@@H](CN(C)S(=O)(=O)c1ccc(C)cc1)[C@@H](C)CN([C@@H](C)CO)S2(=O)=O,0,-3[16.7 µM]
Cn1cnc(S(=O)(=O)N[C@H]2C=C[C@@H](CC(=O)NCC3CC3)O[C@@H]2CO)c1,0,8[16.7 µM]
CN(C)C(=O)C[C@@H]1C[C@@H]2c3cc(NC(=O)Nc4ccccc4F)ccc3O[C@@H]2[C@@H](CO)O1,127*,-1[16.7 µM]
O=C(C[C@@H]1C=C[C@H](NC(=O)C2CCOCC2)[C@@H](CO)O1)NCc1ccncc1,-17,9[16.7 µM]
C[C@@H]1CN([C@@H](C)CO)C(=O)Cc2cc(NC(=O)Nc3ccc4c(c3)OCO4)ccc2O[C@@H]1CN(C)C(=O)Nc1ccc(C(F)(F)F)cc1,-6,-6[16.7 µM]
Cc1ccc(-c2cnc3c(c2)C(=O)N([C@H](C)CO)C[C@H](C)[C@@H](CN(C)C(=O)Cc2cccnc2)O3)cc1,4,-1[16.7 µM]
C[C@@H]1CCCCO[C@@H](CN(C)Cc2ccccc2)[C@@H](C)CN([C@@H](C)CO)C(=O)c2cc(NS(=O)(=O)c3ccc(Cl)cc3)ccc2O1,19,18[16.7 µM]
C[C@H]1CN([C@@H](C)CO)C(=O)c2cccc(NC(=O)Nc3ccc4c(c3)OCO4)c2O[C@@H]1CN(C)S(=O)(=O)c1ccc(F)cc1,3,-5[16.7 µM]
Cc1noc(C)c1NC(=O)Nc1cccc2c1O[C@@H](CN(C)CC1CCCCC1)[C@@H](C)CN([C@H](C)CO)C2=O,10,-16[16.7 µM]
C[C@@H]1CN([C@@H](C)CO)C(=O)c2cc(NC(=O)Cn3cnnn3)ccc2O[C@@H]1CN(C)C(=O)Nc1ccc(F)cc1,12,4[16.7 µM]
C[C@H]1CN([C@@H](C)CO)C(=O)Cc2cc(NC(=O)CCCCCC(=O)Nc3ccccc3N)ccc2O[C@@H]1CN(C)S(=O)(=O)c1ccccc1,11,11[16.7 µM]
Cc1ccc(S(=O)(=O)N[C@H]2CC[C@H](CCNC(=O)C3CCCC3)O[C@H]2CO)cc1,9,22[16.7 µM]
CCC(=O)N[C@H]1C=C[C@H](CC(=O)NCc2ccccc2F)O[C@@H]1CO,15,12[16.7 µM]
COCC(=O)N(C)C[C@H]1Oc2cc(C#CC(C)(C)O)ccc2S(=O)(=O)N([C@H](C)CO)C[C@@H]1C,8,-3[16.7 µM]
Cc1noc(C)c1NC(=O)Nc1ccc2c(c1)C(=O)N([C@@H](C)CO)C[C@@H](C)[C@@H](CN(C)Cc1ccc(C(=O)O)cc1)OCCCC[C@@H](C)O2,-5,-31[16.7 µM]
CCNC(=O)C[C@H]1CC[C@@H]2[C@H](COc3ccc(NC(=O)Nc4ccccc4OC)cc3C(=O)N2C)O1,24,-12[16.7 µM]
C[C@@H]1CN([C@@H](C)CO)C(=O)c2cc(NS(C)(=O)=O)ccc2O[C@@H]1CN(C)Cc1ccncc1,1,8[16.7 µM]
Cc1cc(C(=O)Nc2cccc3c2O[C@H](CN(C)S(=O)(=O)c2ccccc2)[C@@H](C)CN([C@@H](C)CO)C3=O)n(C)n1,22,6[16.7 µM]
C[C@@H]1CCCCO[C@@H](CN(C)S(=O)(=O)c2ccccc2)[C@@H](C)CN([C@H](C)CO)C(=O)c2cc(NC(=O)Nc3ccc4c(c3)OCO4)ccc2O1,-6,-5[16.7 µM]
O=C(Nc1cc(F)ccc1F)N[C@H]1C=C[C@@H](CC(=O)N2CCc3ccccc3C2)O[C@@H]1CO,10,-463[16.7 µM]
COCC(=O)Nc1ccc2c(c1)[C@@H]1C[C@H](CC(=O)NCCc3ccccc3)O[C@H](CO)[C@@H]1O2,-4,9[16.7 µM]
O=C(C[C@H]1CC[C@@H]2[C@H](COC[C@@H](O)CN2CCC(F)(F)F)O1)NCc1ccc2c(c1)OCO2,9,-9[16.7 µM]
C[C@@H]1CCCCO[C@@H](CN(C)Cc2ccccc2)[C@@H](C)CN([C@H](C)CO)C(=O)c2cc(NC(=O)CCC(F)(F)F)ccc2O1,26,-28[16.7 µM]
C[C@@H]1CN([C@@H](C)CO)C(=O)CCCn2cc(nn2)CO[C@H]1CN(C)C(=O)C1CCCCC1,-4,19

# Not all compounds are listed (hit frequency here may not be typical).
